CapD inh = inhibitors of Bacillus anthracis CapD enzyme; z-score (concentration not given with the values); purified CapD enzyme, fluorescence intensity read-out; active compounds read low; some hits fall short of the stated cut; 0.23% of 140,000 active;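 active = z-score under -4 in either of two replicates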;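 note: stock transfer was 100 nL into about 40 µL; score is relative to mean and spread of the plate; one replicate is shown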
AID504770 = growth inhibitors of E. coli YBA685 in a screen for V. cholerae RctB (chromosome II replication) inhibitors | E. coli YBA685 rctB-dependent plasmid, OD600 growth, 3 h; active compounds read low | z-score (test concentration not listed) | 0.27% of 130,000 active | AID 504770;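 active = z-score under -2 on both plates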;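 note: wells of about 30 µL received 100 nL stock; score is relative to mean and SD of the test wells; the first replicate is given; strong numbers were not always called active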
Starred values were filed as active, the others as inactive; . = no result given; & = joins results of further samples.

Below each compound – CapD inh, AID504770
> O=c1cc(N2CCc3ccccc32)[nH]c(=O)n1Cc1ccc(F)cc1
→ -0.87, 0.1
> Cc1c(C)c(C)c(C(=O)CCCC(=O)O)c(C)c1C
→ -0.89, 0.05
> CCOC(=O)N/N=C/c1ccc(Cl)cc1
→ -0.885, .
> O=C(Nc1nncs1)C1c2ccccc2Oc2ccccc21
→ ., 1.65
> COc1cc(Br)c(/C=N/NC(=O)c2cc(Cl)ccc2OC)cc1OC
→ 24.8, .
> O=c1[nH]cnc2c1ncn2[C@@H]1C[C@@H](O)[C@H](CO)O1
→ 0.115, -0.3
> Cn1c(C(=O)O)c(CNC2CCCCC2)c2ccccc21
→ 5.03, -0.35
> COC(NC(=O)Nc1nc2ccccc2s1)(C(F)(F)F)C(F)(F)F
→ -1.4, 0.35
> CCN(CC)S(=O)(=O)c1ccc2nc(Cc3ccccc3)[nH]c2c1
→ ., -0.1
> Cc1ccc(N2S(=O)(=O)c3ccccc3S2(=O)=O)c(C)c1
→ -0.41, .
> N#C/C(C(=O)NCc1ccco1)=C1/SC=C(c2ccccc2)N1c1ccccc1
→ -0.21, 2.45
> O=C(O)c1cccc(-c2nn[nH]n2)c1
→ 0.535, -1.25
> CC(Cc1ccccc1)NC(=O)C1CCCNC1=O (centres undefined)
→ 0.485, -0.55
> COc1ccc(OC)c(N=c2cc(-c3ccc4c(c3)OCO4)oc3ccccc23)c1
→ 1.82, 0.2
> NC(=O)Nc1ccc(C(=O)OCC(=O)NCc2ccccc2)cc1
→ ., -0.4
> O=C(O)COCC(=O)Nc1ccccc1-c1ccccc1
→ ., -0.2
> C/C(=N/OCC(=O)Nc1sc2c(c1C#N)CCCC2)c1cccs1
→ ., 0.45
> CC(C)OC(=O)N(O)c1cccc(Cl)c1
→ -0.145, -0.9
> Oc1ccc2ccccc2c1C=NCc1ccccc1
→ -0.82, -0.05
> COc1ccc(/C=N/NC(=O)C(CCSC)NC(=O)c2ccc(C(F)(F)F)cc2)c(C)c1C (centres undefined)
→ 0.32, .

Taken from above.
In CapD inh, N#C/C(C(=O)NCc1ccco1)=C1/SC=C(c2ccccc2)N1c1ccccc1 has -0.21
In AID504770, Oc1ccc2ccccc2c1C=NCc1ccccc1 has -0.05
In AID504770, C/C(=N/OCC(=O)Nc1sc2c(c1C#N)CCCC2)c1cccs1 has 0.45
In AID504770, NC(=O)Nc1ccc(C(=O)OCC(=O)NCc2ccccc2)cc1 has -0.4

Following part
Below each compound – CapD inh, AID504770
> NN(CCC(=O)N1CCCCC1)C1=NS(=O)(=O)c2ccccc21
→ ., 0.05
> Cc1ccc(/C=C2/SC(=O)N(CCC(=O)N3CCN(C)CC3)C2=O)cc1
→ -0.82, -0.25
> c1coc(-c2ccnc3ncnn23)c1
→ 64.8, -0.05
> CN1CCc2nc3ccccc3c(C(=O)O)c2C1
→ -0.33, .
> CC(=O)c1sc2nsc(SCCN3CCCC3)c2c1N
→ -1.59, 1.2
> CCN1CCN(CCCNC(=O)C2c3ccccc3C(=O)N(CCOC)C2c2cn(C)c3ccccc23)CC1 (centres undefined)
→ 0.21, -0.9
> CC1CCC(NC(=O)C(C)C2Sc3ccccc3N(Cc3cccc(Cl)c3)C2=O)CC1 (centres undefined)
→ 0.83, -0.8
> CC(C)c1nc2ccc(F)cc2c2c1C(=O)N(CCc1ccccn1)C2=O
→ 0.685, .
> CCOc1cccc2c1OC(c1cc(OC)ccc1OC)N1N=C(c3cccc(OC)c3)CC21 (centres undefined)
→ 0.925, .
> CCOc1nc(NC(C)(C)CO)nc(OCC)n1
→ 0.645, -1.6

By substructure: those above containing a furan ring, fused or not (two)
Below each compound – CapD inh, AID504770
> N#C/C(C(=O)NCc1ccco1)=C1/SC=C(c2ccccc2)N1c1ccccc1
→ -0.21, 2.45
> c1coc(-c2ccnc3ncnn23)c1
→ 64.8, -0.05

Continuation:
Below each compound – CapD inh, AID504770
> Cc1cc2nc(N3CCN(S(=O)(=O)c4ccccc4)CC3)c3ccccc3n2n1
→ ., -0.5
> N=c1c2c3c(sc2nc2n1CCCCC2)CCCCC3
→ 0.515, -0.05
> Cc1cc(C)n(-c2ccc(C(=O)OCC(=O)Nc3sc4c(c3C(N)=O)CCC4)cc2)n1
→ ., 0.15
> COc1cc(C(=O)NN)c(-n2c(C)ccc2C)cc1OC
→ 1.52, -0.85
> Cc1cc(S(=O)(=O)Nc2c(C)nn(C)c2C)c(Cl)cc1Cl
→ -1.03, -0.05
> O=S(=O)(c1cccc(C(F)(F)F)c1)c1cnc(-c2ccc(C(F)(F)F)nc2)nc1-c1ccncc1
→ -0.595, .
> O=C(NC1CCCC1)c1ccc(Br)o1
→ ., 0.3
> CCOCCOC(=O)COc1ccc2c(=O)c(Oc3cc(C)cc(C)c3)c(C(F)(F)F)oc2c1
→ -0.42, .
> c1ccc(CCc2nn3cnnc3s2)cc1
→ -0.335, 0.2
> Cc1cccc(COC(=O)N2CCN(Cc3ccccc3Sc3ccc(Cl)cc3)CC2)c1
→ -0.405, .
> CC(C)c1ccc(NC(=O)NCC2CCCO2)cc1 (centres undefined)
→ 0.56, 0.15
> COc1ccc(NC(=O)CN=C2NS(=O)(=O)C(c3ccc(F)cc3)=C2C)cc1
→ 0.795, 0.4
> CC(C)c1ncc2c(n1)-c1cc(Cl)ccc1SC2
→ 0.77, -0.8
> Cc1nn(CC(=O)N2CCCC2)c(C)c1NC(=O)c1cnn2c1NC(c1ccco1)CC2C(F)(F)F (centres undefined)
→ -0.955, -0.5
> Cc1ccc(C2C=C(C34CC5CC(CC(C5)C3)C4)NC(=S)N2)cc1 (centres undefined)
→ -0.37, -0.4
> CCCCN1C(=O)c2cccc3cc([N+](=O)[O-])cc(c23)C1=O
→ -0.005, .
> COc1ccc(C2=NN(c3ccc(F)cc3)C(c3ccc(Cl)cc3)C2)cc1 (centres undefined)
→ 35.4, .
> CCc1nc2ccccc2c2c1C(=O)N(CCn1c([N+](=O)[O-])cnc1C)C2=O
→ -0.295, .
> COc1ccc2c(c1)CCC(C)N2C(=O)Nc1ccc(OC)c(OC)c1 (centres undefined)
→ -0.4, 0.45
> O=c1cc(CSc2nnc(COc3ccccc3)o2)c2ccccc2[nH]1
→ ., 1.9
> CCOC(=O)N1CCN(C(=O)c2ccc(/C=C3\Oc4ccccc4NC3=O)cc2)CC1
→ 94.7, 0
> CN(C)S(=O)(=O)c1cccc(CN2CCCc3ccccc32)c1
→ ., -0.1
> O=C(O)C(Br)(Cc1ccccc1)C(=O)O
→ -0.335, -0.85
> C=CCNc1nc(C(=O)OCc2nnc(-c3ccc(Br)cc3)o2)cs1
→ ., -0.4
> CN(C1CCCCC1)S(=O)(=O)c1ccc(SCC(=O)NC2CC2)nc1
→ ., 0.4
> Cc1cc(C)c2ccc(=O)cc-2o1
→ 2.48, -0.6
> O=C(CN1CCc2ccccc2C1)N1N=C(c2ccc(Cl)cc2)CC1c1ccco1 (centres undefined)
→ ., 1.3
> COc1cc(C(F)(F)F)nc(Oc2ccc(Cl)c3cccnc23)n1
→ 0.875, .
> CCC(C)C(=O)Nc1cccc(C(=O)O)c1 (centres undefined)
→ 0.145, -0.3
> CSc1nnc(NC(=O)Cc2ccccc2)s1
→ ., -0.3
> CC1(C)CC(=O)C2=C(C1)N=C1c3ccccc3C(=O)C1C2c1ccc(F)cc1 (centres undefined)
→ -1.54, .
> CC(=O)N(C(C)=O)c1nc(-c2ccccc2)cn1/N=C/c1ccccc1
→ -7.05*, .
> O=C(/C=C/c1cccc(Br)c1)N1CCN(c2ccccc2O)CC1
→ -0.065, 2.3
> Fc1cccc(Cl)c1C1N2CCCCN12 (centres undefined)
→ 0.915, -0.35
> O=C(CCC(=O)N1CCN(S(=O)(=O)c2ccccc2)CC1)Nc1ccc2c(c1)OCCO2
→ ., -0.9
> O=C(O)Cn1cc(C(=O)c2ccccc2F)c2ccccc21
→ 0.035, 0.35
> c1ccc2c(OCCCCCn3ccnc3)cccc2c1
→ ., -1.3
> Nc1cccc(Cl)c1Oc1ccc(S(=O)(=O)N2CCOCC2)cc1
→ -0.485, -0.6
> O=S(=O)(NC1CCCCC1Oc1ccccc1)c1ccccc1 (centres undefined)
→ -0.81, -0.7
> CCOc1ccc(N2CC(O)(c3ccc(Cl)cc3)[N+]3=C2CCCC3)cc1 (centres undefined)
→ -0.015, .
> Cc1cccc(NC(=O)CN2c3cccc4cccc(c34)S2(=O)=O)c1
→ 0.89, 0.65
> Cc1cc(=O)[nH]c(-c2ccc(C(F)(F)F)cc2)n1
→ 0.175, -0.05
> CC(O)C12CC3CC(CC(C3)C1)C2 (centres undefined)
→ -0.29, -0.6
> Cc1ccc(Nc2c(-c3c[nH]c4ccccc34)nc3c[n+](CC(N)=O)ccn23)cc1
→ 0.485, -0.4
> Clc1cc2c(cc1Cl)Nc1cc(Cl)c(Cl)cc1N2
→ ., -0.15
> Cc1ccc(NC(=O)CCCC(=O)c2ccccc2)cc1Cl
→ 0.19, 1.6
> C=CCOc1ccc(C(=O)N2CCc3ccccc3C2)cc1
→ 0.13, 0.55
> CCC(=O)Oc1ccc(N2C(=O)C3C4C=CC(C4)C3C2=O)cc1 (centres undefined)
→ 0.68, 0.55
> CC(NC(=O)CCOc1ccccc1)c1ccccc1 (centres undefined)
→ -0.225, -1.45
> Cc1ccc(C(O)c2cccnc2)o1 (centres undefined)
→ -0.155, -0.1

Random excerpt: 3 entries already listed, in no set order.
Below each compound – CapD inh, AID504770
> O=C(Nc1nncs1)C1c2ccccc2Oc2ccccc21
→ ., 1.65
> CC(O)C12CC3CC(CC(C3)C1)C2 (centres undefined)
→ -0.29, -0.6
> COc1ccc(/C=N/NC(=O)C(CCSC)NC(=O)c2ccc(C(F)(F)F)cc2)c(C)c1C (centres undefined)
→ 0.32, .

Following part:
Below each compound – CapD inh, AID504770
> CN1C(=O)C(C)(C)c2cc(S(=O)(=O)N(C)CC(=O)NCc3cccs3)ccc21
→ -0.735, 0.3
> O=C(O/N=C1\CCCc2c1sc1nc3n(c(=O)c21)CCCCC3)c1cccc(I)c1
→ 0.04, .
> O=C(Nc1cccc(Cl)c1)N1CCC(c2cc(-c3ccco3)n[nH]2)CC1
→ -0.06, .
> CC1CCN(C(=O)COC(=O)c2ccccc2O)CC1
→ ., -0.55
> CC(C)Oc1ccc(CN2CCCCC2COC(=O)NCc2ccc3c(c2)CCO3)cc1 (centres undefined)
→ -0.45, .
> CC(C)C(=O)Nc1ncc(Cc2ccccc2Cl)s1
→ 0.175, 0.4
> Cc1ccc(-c2cc(C(=O)NCCCn3ccnc3)c3ccccc3n2)s1
→ 84.5, .
> CN1CCN(c2ccc(Cl)cc2NC(=O)c2cccc([N+](=O)[O-])c2)CC1
→ -0.505, .
> CCOC(=O)C1=C(CSc2nnnn2-c2ccccc2)NC(=O)NC1C (centres undefined)
→ ., -0.3
> CN(C(=O)CSc1nnc(Cc2cccs2)n1CCc1ccccc1)c1ccccc1
→ ., -1.45
> Oc1c(N=Nc2ccccc2)c2ccccc2n1Cc1ccc(Cl)c(Cl)c1
→ -0.11, .
> CCCOC(=O)CSc1nc2c(c(-c3ccc(O)cc3)c1C#N)CCCC2
→ -0.595, .
> CCCC1=NN(C(=O)Cc2ccc(OC)c(OC)c2)C(O)(C(F)(F)F)C1 (centres undefined)
→ -0.16, .
> O=C(Nc1ccc(F)cc1)c1ccccc1N=Cc1cc(Cl)cc(Cl)c1O
→ 33.4, .
> Cc1ccccc1CSCc1ccc(C(=O)NC2CCCC2)o1
→ -0.145, 1.9
> COC(=O)Nc1nc2ccc(SC(C)C)cc2[nH]1
→ -0.675, .
> FC(F)(F)c1cccc(OCc2nnc3n2CCCCC3)c1
→ 0.505, -0.45
> c1ccc2nc3c(nc2c1)sc1nc2ccccc2n13
→ 0.44, -0.15
> CCN(CC)S(=O)(=O)c1ccc(N2CC(C(=O)Nc3nc4ccccc4s3)CC2=O)cc1 (centres undefined)
→ ., 0.55
> CC(=O)Nc1ccc(-n2c(C)ccc2C)cc1
→ -0.975, 1.25
> FC(F)(F)c1cc(C#CCN2CCCC2)cc(C(F)(F)F)c1
→ -0.05, -0.9
> O=C(CSc1ccc(Cl)cc1)NC1CCCc2ccccc21 (centres undefined)
→ 0.135, 1.05
> O=C1CSC2(C(=O)Nc3ccccc32)N1c1cccc(C(F)(F)F)c1 (centres undefined)
→ -0.42&0.42, .
> O=C(NCCN1CCOCC1)NC(=O)c1ccccc1
→ 0.295, -0.95
> CC1CCCCN1S(=O)(=O)c1ccc2c(c1)C(C)(C)C(=O)N2C (centres undefined)
→ -0.47, 0.2
> Cc1ccc(CNC(=O)CCC(=O)Nc2ccc3nc(N4CCCCC4)cc(C)c3c2)cc1
→ -0.045, .
> O=C(Nc1ccc([N+](=O)[O-])cc1)/C(=C/c1cccc([N+](=O)[O-])c1)NC(=O)c1ccccc1Br
→ -0.07, .
> Cc1cc(C)n(C(=O)CNC(=O)c2ccccc2)n1
→ 0.135, 0.25
> CC1CCCCN1C(=O)CSc1nnc2c(Cl)cc(Cl)cn12 (centres undefined)
→ ., 0.25
> NNC(=O)C1CCS(=O)(=O)C1 (centres undefined)
→ ., -0.1
> CCn1c(=O)c2cc(C(=O)N3CCC4(CC3)OCCO4)sc2c2ccccc21
→ 3.78, 0.4
> CC(=O)Nc1ccc(-c2nc(-c3ccccc3)nc3ccccc23)cc1
→ 0.53, .
> NC(=O)c1cccc2cccc(Br)c12
→ 0.535, -0.1
> Cc1nc2ccc(NC(=O)Nc3ccccc3)cc2o1
→ 0.25, 0.1
> CCc1ccccc1NNC(=O)c1snnc1C
→ -1.43, -0.45
> Cc1ccc(N2CCN(C(=O)c3cnn4c(C)c(Cc5ccccc5Cl)c(C)nc34)CC2C)cc1 (centres undefined)
→ -0.185, 0.1

Screening data deposited in PubChem by ICCB-Longwood Screening Facility, Harvard Medical School.

An excerpt; count on the stated rates, not on these rows.
